# Screening results from PubChem.
# Cruzain Triton: blocks cruzain activity in presence of Triton detergent. 200,000 tested, 0.43% active. AID 1478. Potency, µM, for the others: max response, negative = inhibition, actives largely listed as inhibitors. purified cruzain, Z-FR-AMC fluorescence, 0.01% Triton. P25779; active = well fitted curve in the direction sought with a large enough effect; inconclusive = small, poorly fitted or top-dose-only effect, or another doubt; inactive = no such curve, though single readings can be large; an effect the other way counts as inactive or inconclusive;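 also: plate controls were neutral wells for no effect and buffer without enzyme for full effect; nearly all actives have a fitted effect of over 40% in size; top concentration of the series not given in the record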
# Target sequence (P25779 123-467 limits assumed): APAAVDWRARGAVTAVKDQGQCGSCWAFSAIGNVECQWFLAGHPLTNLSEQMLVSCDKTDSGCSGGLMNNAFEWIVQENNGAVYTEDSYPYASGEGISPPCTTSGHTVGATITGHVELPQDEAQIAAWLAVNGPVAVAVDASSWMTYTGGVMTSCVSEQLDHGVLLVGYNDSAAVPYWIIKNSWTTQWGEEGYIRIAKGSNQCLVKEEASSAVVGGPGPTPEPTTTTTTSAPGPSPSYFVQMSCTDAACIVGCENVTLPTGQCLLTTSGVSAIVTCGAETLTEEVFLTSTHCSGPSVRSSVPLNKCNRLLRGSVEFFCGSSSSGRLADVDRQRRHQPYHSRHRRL
#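 Detergent-containing run (0.01% Triton X-100) in acetate buffer pH 5.5 with 5 mM DTT: enzyme at 1.5 nM final, 15 min compound preincubation at room temperature, then 2 uM Z-FR-AMC substrate. Activity taken as 60 s fluorescence increase at 360/450 nm.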
# RE007 growth inh: less growth of the S. pombe RE007 Vpr strain. 360,000 tested, 0.21% active. Potency, µM (top dose mostly 92.2 µM), inactives show at the highest dose activity change, negative = less growth. S. pombe RE007 Vpr strain, BacTiter-Glo ATP luminescence, 24 h; control for the full effect not named in the record; active = well fitted falling curve with a large enough effect; inconclusive = small, poorly fitted or top-dose-only effect; inactive = no such curve, though single readings can be large or run the other way;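 also: % is scaled to controls: 0 for no effect and ±100 for the full control effect; nearly all actives have a fitted effect of over 50% in size; the assay follows cell death caused by Vpr and the record does not say whether a fall means rescue or toxicity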
#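 Fission yeast RE007 carrying one integrated HIV-1 vpr copy, seeded at OD 0.01 in PMG+AL medium with 23 nL pinned compound. Grown 24 h at 30 degrees; viability read by BacTiter-Glo luminescence after 5 min.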
# LASV entry inh: inhibitors of Lassa virus binding or cell entry | Potency, µM (highest dose often 37.9 µM), for inactives: at the top dose activity change, negative = inhibition, most hits filed as inhibitors | Lassa virus pseudotype entry inhibition, cell reporter; control for the full effect not named in the record | AID 540256 | 300,000 tested, 1.2% active; active means well fitted inhibition curve with a large enough effect; inconclusive means small, poorly fitted or top-dose-only effect, or effect the other way; inactive means flat fitted curve, though single readings scatter; tested in HEK293 cells; also: % is scaled to controls: 0 for no effect and ±100 for the full control effect; nearly all actives have a fitted effect of over 50% in size; luciferase read-out
# NS1 function inh: inhibitors of influenza NS1 protein function; S. cerevisiae slowed by influenza A NS1, growth recovery by OD600; 270,000 tested, 0.4% active; Potency, µM (highest dose often 46.1 µM), for inactives: at the highest dose activity, positive = more growth; also: actives are rising curves; nearly all actives have a fitted effect of over 50% in size
#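 S. cerevisiae expressing influenza A NS1, grown in glucose, washed, then diluted 1:100 into pH 6.0 -URA galactose medium with 23 nl compound. Growth recovery read as OD600; NS1-free strain serves as control.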
# 2A StopGo: lowers the luciferase signal of an FMDV 2A StopGo reporter | 410,000 tested, 1.2% active | human cells with a luciferase reporter of 2A StopGo recoding; control for the full effect not named in the record | Potency, µM (doses to about 57.9 µM), for the others: at the top dose signal change, negative = less light; active = well fitted falling curve with a large enough effect; inconclusive = small, poorly fitted or top-dose-only effect; inactive = no such curve, though single readings can be large or run the other way; tested in HEK293T cells; also: % is scaled to controls: 0 for no effect and ±100 for the full control effect; nearly all actives have a fitted effect of over 45% in size; luciferase light after 4 h
# MARV entry inh: blocks Marburg virus binding to or entry into cells. Marburg virus pseudotyped entry inhibition, cell reporter; control for the full effect not named in the record; about a third of the inactives were read at about 46 µM. Potency, µM (highest dose often 37.8 µM), for inactives: top-dose activity change, negative = inhibition, usual class: inhibitors. 300,000 tested, 1.8% active. AID 540276; active = well fitted inhibition curve with a large enough effect; inconclusive = small, poorly fitted or top-dose-only effect, or effect the other way; inactive = flat fitted curve, though single readings scatter; tested in HEK293 cells; about a fifth of its hits are not listed in these tables; also: % is scaled to controls: 0 for no effect and ±100 for the full control effect; luciferase read-out
# Cruzain inh noDet: blocks cruzain activity in detergent-free assay | purified cruzain, Z-FR-AMC fluorescence, no detergent | Potency, µM, for inactives: max response, negative = inhibition, usual class: inhibitors | 200,000 tested, 2.3% active; active = well fitted curve in the direction sought with a large enough effect; inconclusive = small, poorly fitted or top-dose-only effect, or another doubt; inactive = no such curve, though single readings can be large; an effect the other way counts as inactive or inconclusive;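 also: plate controls were enzyme without inhibitor for no effect and buffer without enzyme for full effect; nearly all actives have a fitted effect of over 40% in size; top concentration of the series not given in the record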
#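 Detergent-free condition (0.00005% Triton X-100) in acetate buffer pH 5.5 with DTT. 1.5 nM enzyme and compound were pre-mixed 15 min, then 2 uM Z-FR-AMC substrate added; reaction progress from fluorescence change between first and third reads (60 s).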
# SARS PLpro yeast: inhibitors of SARS-CoV papain-like protease in yeast; Potency, µM (top dose mostly 32.9 µM), for inactives: at the top dose activity, positive = growth rescue; 330,000 tested, 0.19% active; S. cerevisiae expressing SARS-CoV PLpro, growth rescue; control for the full effect not named in the record; also: 0% is about no effect; nearly all actives have a fitted effect of over 55% in size; growth read by luminescence after 48 h
# The depositor's hits bear a star; ? = inconclusive; . = not tested or not shown; & = joins results of further samples; [ ] = remark or other dose. Unless noted, calls follow the shape of the dose curve; as a rule, active means well fitted rising curve with a large enough effect; inconclusive means small, poorly fitted or top-dose-only effect; inactive means no such curve, though single readings can be large or run the other way. Potency is read from the fitted curve at half-maximal effect.
Molecule	Cruzain Triton	RE007 growth inh	LASV entry inh	NS1 function inh	2A StopGo	MARV entry inh	Cruzain inh noDet	SARS PLpro yeast
OC1CCCN(c2ncnc3c2nnn3Cc2c(F)cccc2Cl)C1 (stereo not drawn)	.	3%	6.3µM*	1%	6%	10µM*	.	1%
CCC(C)N(C(=O)CSc1nnc(COc2ccccc2F)n1N)C1CCS(=O)(=O)C1 (stereo not drawn)	.	-18%	1%	.	-5%	-11%	.	-6%
CCn1c(=O)c(C(=O)NNC(=O)c2ccccc2F)c(O)c2ccccc21	.	-6%	?	-21%	15%	?	.	2%
CCN(C(=O)COc1ccc2ccc(=O)oc2c1)C1CCCCC1	.	3%	2%	.	-16%	-31%	.	-1%
Cn1c2c(c(=O)n(C)c1=O)C(c1ccc(F)cc1)C(C#N)=C(N)O2 (stereo not drawn)	.	0%	-7%	.	-22%	22%[46.1 µM]	.	-2%
Cc1nn(CC(=O)NCc2ccccc2Cl)c(=O)c2nn(-c3ccccc3)c(C)c12	4.5%	.	10%[46.1 µM]	.	7%	.	16%	.
COCCn1c(SCC(=O)NCCCN2CCCC2=O)nc2sc3c(c2c1=O)CCCC3	.	27%	5%	.	-16%	-5%	.	.
CCOC(=O)COc1ccc2c3c(c(=O)oc2c1C)CCC3	-4.2%	-11%	2%	-7%	21%	-1%	-2%	0%
CC(Cc1ccccc1)NC(=O)Cc1ccc(N(C)C)cc1 (stereo not drawn)	0.1%	11%	0%	1%	-5%	?	2%	1%
COc1ccc(-c2nc(NC(=O)C3CCN(c4nc5ccccc5o4)CC3)sc2C)cc1	0.5%	-15%	?	-18%	-10%	?	-15%	-2%
Cc1nn(CC(=O)NCC2CCCO2)c(C)c1[N+](=O)[O-] (stereo not drawn)	.	0%	18%	-1%	-12%	23%	.	0%
COc1ccc(CNC(=O)CCn2c(=O)[nH]c3ccccc3c2=O)cc1	.	-15%	15%	.	9%	12%	.	0%
O=C(Nc1nccs1)c1ccc(Cl)c(S(=O)(=O)N2CCOCC2)c1	-1.0%	0%	11%	2%	-28%	-8%	3%	-1%
Cc1ccc(N2C(=O)N(CC(=O)C(C)(C)C)c3ccccc3S2(=O)=O)cc1C	-4.2%	.	10%[46.1 µM]	.	-25%	.	13%	.
CC1(C)Cc2c(sc3nc(-c4cc5ccccc5o4)n(N)c(=O)c23)CO1	-15%	1%	4%	-20%	0%	?	?	0%
O=C(NCCCN1CCOCC1)c1sc2ccccc2c1Cl	.	-23%	.	-2%	58%[activator]	.	.	0%
Cc1cc(C)nc(NS(=O)(=O)c2ccc(CC(C)C)cc2)c1	.	-4%	17%	?	31%[activator]	-12%[46.1 µM]	.	-1%
NS(=O)(=O)c1cccc(NS(=O)(=O)c2ccc(/C=C/C(=O)OCC(=O)c3ccc(Br)cc3)cc2)c1	.	10%	9%	2%	-9%	18%[46.1 µM]	.	15%
O=C(O)c1cn(-c2ccccc2)c(=O)c2ccccc12	0.7%	-3%	?	7%	11%	18%	-1%	5%
CC(=O)c1c(C)[nH]c(C(=O)CSc2nnc(NC3CC3)s2)c1C	.	13%	9%	.	-7%	-21%[46.1 µM]	.	-9%

# An excerpt of these results, with values under each structure.
# The line under a structure holds: Cruzain Triton, RE007 growth inh, LASV entry inh, NS1 function inh, 2A StopGo, MARV entry inh, Cruzain inh noDet, SARS PLpro yeast
Cc1cc(C)nc(NS(=O)(=O)c2ccc(CC(C)C)cc2)c1
→ ., -4%, 17%, ?, 31%[activator], -12%[46.1 µM], ., -1%
NS(=O)(=O)c1cccc(NS(=O)(=O)c2ccc(/C=C/C(=O)OCC(=O)c3ccc(Br)cc3)cc2)c1
→ ., 10%, 9%, 2%, -9%, 18%[46.1 µM], ., 15%
O=C(O)c1cn(-c2ccccc2)c(=O)c2ccccc12
→ 0.7%, -3%, ?, 7%, 11%, 18%, -1%, 5%

# (further entries)
Molecule	Cruzain Triton	RE007 growth inh	LASV entry inh	NS1 function inh	2A StopGo	MARV entry inh	Cruzain inh noDet	SARS PLpro yeast
Cc1cccc(-c2oc3ccc(-c4ccc5c(c4)OCO5)cc3c2/C=C/c2ccc(N)cc2)c1	.	-5%	.	21%	-3%	.	.	8%
COc1cc2[nH]c(C(=O)N3CCc4ccccc43)cc2c(OC)c1OC	.	8%	.	-1%	41%[activator]	.	.	-1%
CNC(=O)NNC(=O)c1onc(-c2c(Cl)cccc2Cl)c1C(=O)OC	.	2%	2%	2%	-3%	?	.	-1%
COc1ccc(N2CC(NC(=O)c3cc4ccccc4o3)CC2=O)cc1OC (stereo not drawn)	-0.8%	.	24%[46.1 µM]	.	-19%	.	-6%	.
Cc1ccc(Cl)cc1NC(=O)COc1ccccc1	.	-1%	.	-2%	38%[activator]	.	.	-4%
CC(C)/C=N/NC(=O)c1cccc(N2CCCC2=O)c1	-1.6%	-2%	7%	11%	16%	20%	-1%	-19%
Cn1c(COc2ccccc2)nnc1SCCSc1nnc(COc2ccccc2)n1C	-2.2%	-14%	-7%	2%	-18%	2%&-3%	?	6%
CN(C)c1ccc(NC(=O)Cn2c(=O)n(Cc3ccccc3)c(=O)c3ccccc32)cc1	-2.9%	11%	-1%	6%	-14%	2%&2%	?	-1%
COc1cc(/C=N/N(c2ccccc2)c2ccccc2)ccc1O	.	?	-22%	-56%	-24%	0%	.	26%
O=C1CN(C(=O)c2ccco2)C(c2ccccc2)c2cc(Cl)ccc2N1 (stereo not drawn)	6.7%	-12%	-2%	-8%	-1%	-7%	2%	-4%

# Limited to Cruzain Triton and RE007 growth inh (2 entries from above):
SMILES	Cruzain Triton	RE007 growth inh
CN(C)c1ccc(NC(=O)Cn2c(=O)n(Cc3ccccc3)c(=O)c3ccccc32)cc1	-2.9%	11%
COc1cc(/C=N/N(c2ccccc2)c2ccccc2)ccc1O	.	?

# The listing continues.
Molecule	Cruzain Triton	RE007 growth inh	LASV entry inh	NS1 function inh	2A StopGo	MARV entry inh	Cruzain inh noDet	SARS PLpro yeast
O=C1c2cccc3cc([N+](=O)[O-])cc(c23)C(=O)N1CC1CCCO1 (stereo not drawn)	.	1%	-4%	1%	-21%	-2%	.	-2%
CC(C)Cn1c(N)c(C=O)c(=O)n(C)c1=O	.	-10%	-2%	.	-1%	8%[46.1 µM]	.	2%
CCc1c(C)nc(SCC(=O)NC2CCCC2)[nH]c1=O	.	8%	-17%[46.1 µM]	-7%	-3%	-3%[46.1 µM]	.	2%
CCOc1ccc(C2Nc3c(C)cccc3-c3cc(C)nn32)cc1 (stereo not drawn)	-13%	.	-7%[46.1 µM]	.	-19%	?	4%	.
COC(=O)C1=Nc2ccccc2/C1=C\c1c(O)n(C)c(=O)n(C)c1=O	.	-11%	.	-4%	-40%	.	.	1%
CCOc1ccc(-c2nonc2NC(=O)c2oc3cc(Br)ccc3c2C)cc1	-0.9%	.	0%[46.1 µM]	.	-26%	-6%[46.1 µM]	2%	.
CC(C)Cc1nnc(NC(=O)C2CC(=O)N(c3ccc4c(c3)OCCO4)C2)s1 (stereo not drawn)	.	11%	-7%	.	-1%	20%	.	-1%
CCOc1ccccc1NC(=O)CSc1nccn1-c1ccc(Cl)cc1	-3.2%	.	1%[46.1 µM]	.	-8%	.	11%	.
COC(=O)c1ccc(NC(=O)COc2ccc(S(=O)(=O)N3CCCCC3)cc2)cc1	8.8%	-7%	-4%	5%	-1%	5%	-12%	-8%
CSCCCNC(=S)Nc1ccc(N2CCOCC2)cc1	.	-10%	.	.	4%	-2%[46.1 µM]	.	1%
Cc1ccc(NS(=O)(=O)c2cc3c4c(c2)CC(=O)N4CCC3)cc1C	.	16%	.	17%	43%[activator]	.	.	6%
Cc1cc(C(=O)NNC(=S)NC2CCCCC2)cs1	.	3%	.	22%	61%[activator]	.	.	3%
Cn1c(-c2ccccc2)cnc1NCc1cccc([N+](=O)[O-])c1	.	-11%	.	-13%	5%	.	.	3%
CCCOc1ccc(N2C(=O)CC(N(CCc3ccc(OC)cc3)C(=O)c3cccc(F)c3)C2=O)cc1 (stereo not drawn)	-2.4%	1%	?	?	-9%	?	2%	-11%
COc1cc(C2C(C(=O)c3cccs3)=C(O)C(=O)N2CCN2CCOCC2)cc(OC)c1OC (stereo not drawn)	.	7%	17%	-7%	-2%	4%	.	?
COc1ccc(C(CNC(=O)c2ccc(F)cc2)N2CCCC2)cc1 (stereo not drawn)	1.1%	.	22%[46.1 µM]	.	10%	-3%[46.1 µM]	-1%	.
COc1cc2c(cc1OC)CN(CCC(C)c1ccc(Cl)cc1)CC2 (stereo not drawn)	.	-8%	?	.	-25%	?	.	.
CCOC(=O)N1CCC(N2Cc3cccc(C(=O)NCc4ccccc4OC)c3C2=O)CC1	-3.0%	15%	-28%	-36%	-8%	0%	?	19%
COc1ccc(CCNc2ncnc3onc(C)c23)c(OC)c1	-1.7%	.	-11%[46.1 µM]	.	13µM*	.	13%	.
CC(=O)c1cccc(NC(=O)Cn2c(C)c3cnn(-c4ccccc4)c(=O)c3c2C)c1	-9.0%	.	7%[46.1 µM]	.	-7%	-1%[46.1 µM]	-3%	.
O=C(NNC(=O)c1ccccc1O)c1ccc(Cl)cc1	6.1%	-15%	-2%	-11%	23%	-8%	-9%	5%
Cn1ncc([N+](=O)[O-])c1C(=O)Nc1ccc(Cl)cc1	.	-13%	.	6%	-29%	.	.	-4%
CC(=O)Nc1nc(C)c(C(C)(C)C)s1	.	2%	0%	-2%	-6%	1%[46.1 µM]	.	-1%
COc1cccc(CN=CC2=C(O)CC(C)(C)CC2=O)c1OC	5.4%	-5%	10%	9%	24%	25%	-21%	6%
Cc1[nH]n2c(=O)cc(Cc3ccccc3)nc2c1C#N	4.5%	12%	9%	2%	-13%	3%	-5%	1%
COc1cc(C)c(COc2ncnc3ccccc23)cc1OC	.	26%	19%[46.1 µM]	-5%	-10%	?	.	1%
